Source: PubChem (several laboratories)
Beta apoptosis: beta cell apoptosis inhibition; protection from apoptosis, % (test concentration not listed); INS-1E cytokine-induced death, ATP luminescence, 48 h; percent of positive-control rescue, neutral wells zero; 300,000 compounds, 0.8% hits;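 active = all replicates at 75% or more, or half of them and the mean; inconclusive = half reach 75% but not the mean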;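 also: 0% = cytokine-treated negative control wells and 100% = positive control rescue; higher means more ATP so stronger rescue from cytokine killing; wells of about 40 µL received 100 nL stock; the first replicate is given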
AF4-AF9 inh: MLL-AF4/AF9 protein interaction inhibition; AlphaScreen, biotin-AF4 peptide binding to FLAG-AF9; inhibition, % at 10 µM; 350,000 compounds, 0.47% hits;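 active = every replicate reaching a set inhibition limit, whatever the replicate mean, cut at about 25% in these data; inconclusive = mean inhibition reaches that limit but some replicates miss it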;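 also: 0% = plate neutral control median and 100% = total signal loss; the record names both 10 and 1 µM as test concentration; the first replicate is given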
Target sequence (P42568 whole entry, looked up): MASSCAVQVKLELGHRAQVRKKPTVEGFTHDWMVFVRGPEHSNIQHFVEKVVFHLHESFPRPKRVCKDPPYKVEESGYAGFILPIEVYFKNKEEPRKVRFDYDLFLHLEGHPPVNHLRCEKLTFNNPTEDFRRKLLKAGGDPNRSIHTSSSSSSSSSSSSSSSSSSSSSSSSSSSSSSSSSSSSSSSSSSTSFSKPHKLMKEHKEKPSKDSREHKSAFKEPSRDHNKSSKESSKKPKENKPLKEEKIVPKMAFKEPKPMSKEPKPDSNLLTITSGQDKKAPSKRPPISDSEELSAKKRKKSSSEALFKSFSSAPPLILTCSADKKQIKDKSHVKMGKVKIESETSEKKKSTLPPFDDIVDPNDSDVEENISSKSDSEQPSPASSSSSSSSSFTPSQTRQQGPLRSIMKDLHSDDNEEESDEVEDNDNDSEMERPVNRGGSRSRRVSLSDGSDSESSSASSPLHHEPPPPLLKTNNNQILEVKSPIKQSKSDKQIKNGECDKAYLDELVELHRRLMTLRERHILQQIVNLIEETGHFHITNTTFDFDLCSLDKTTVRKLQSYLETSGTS
rRNA inh HTS: inhibitors of bacterial rRNA selective over humanized ribosomes; E. coli WT GFP vs humanized-ribosome RFP mutants, fluorescence, 24 h; active compounds read low; DMSO median 0, no signal -100; GFP signal change (wild-type ribosome), % (concentration not given with the values); 350,000 compounds, 1.6% hits;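 active = significant combined selectivity score with lowered wild-type GFP, culture density cut under 30%, mutant RFP and density less affected; inactive = any of these conditions unmet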; also: one replicate is shown; some compounds called inactive have numbers as strong as hits
A1 inh: inhibitors of the anti-apoptotic protein A1, read as caspase activation. 330,000 compounds, 0.066% hits. MEF A1-2A-BIM cells, Caspase-Glo 3/7 luminescence, 3 h; percent of clofoctol response, vehicle zero. AID 2462. caspase activation, % (no concentration beside the values);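 active = over half of replicate activation scores above 10%, or exactly half above 10 with the replicate mean above 10; inconclusive = replicate mean below 10 yet half the replicates above 10; inactive = over half of replicates below 10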;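 also: wells of about 30 µL received 50 nL stock; many hits fall short of the cut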
RanGTP-Impb inh: inhibitors of RanGTP-importin-beta interaction, primary screen, biochemical, FRET, CFP-Ran, YFP-importin-beta, homogeneous; cell-free CFP-Ran/YFP-importin-beta FRET ratio; inhibition, % (concentration not given with the values); 300,000 compounds, 1.1% hits; AID 2216;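 active = most replicates above 15%; inconclusive = exactly half above 15%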;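 also: 0% = DMSO wells and 100% = Ran loaded with GDP instead of GTP; wells of about 40 µL received 100 nL stock; the first replicate is given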
Vif A3G: HIV-1 Vif–A3G interaction blockers – biochemical, TR-FRET, GST-Vif 1-94, biotin-A3G peptide, dose response retest, primary screen (AID 1117319); TR-FRET GST-Vif / biotin-A3G peptide binding; higher % means a stronger effect; test concentration not given here; strong numbers were not always called active; inhibition, %; hits with a dose series show IC50 in µM; 260,000 compounds, 0.57% hits;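 active = above the screen mean plus three standard deviations and confirmed in dose response; inconclusive = results disagree or hit not tested in dose response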;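 also: Vif residues 1-94 fused to GST binding biotinylated APOBEC3G peptide 110-148; 0% = full assay without inhibitor and 100% = GST in place of GST-Vif; retest series ran down from 100 µM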
Calb FLC: affects C. albicans growth with fluconazole; 300,000 compounds, 0.57% hits; AID 1979; growth inhibition, % (no concentration beside the values); C. albicans CaCi-2 (fluconazole-resistant clinical isolate) + fluconazole, Alamar Blue growth, 48 h;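 active = most replicates above 75%; inconclusive = exactly half above 75%; inactive = most below 75%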;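 also: all wells also contain fluconazole at 8 µg/ml as a sub-toxic cotreatment; 0% = median of DMSO wells and 100% = median of geldanamycin control wells; wells of about 8 µL received 7.5 nL stock; the first replicate is given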
T cruzi repl: T. cruzi replication inhibition; T. cruzi beta-gal in NIH3T3, luminescence, 90 h; inhibition, % (concentration not given with the values); 300,000 compounds, 1.4% hits;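 active = mean inhibition across valid replicates above about 55%, limit read from the data; inconclusive = mean below that limit but half or more replicates reach it; inactive = mean below it, under half of replicates reach it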;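 also: signal also drops with host cell toxicity which is not excluded here; 0% = plate median of DMSO wells and 100% = zero luminescence signal; higher percent means less beta-gal luminescence so fewer parasites; stock transfer was 50 nL into about 50 µL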
rRNA inh HTS OD600: further read-out of rRNA inh HTS, marked with its call; OD600 change, %; measured here: OD600 growth;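 optical density of the mix in the first replicate; 0 = DMSO median and -100 = no signal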
rRNA inh HTS RFP: further read-out of rRNA inh HTS, marked with its call; RFP signal change, %; measured here: RFP humanized mutant strains;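 first replicate; 0 = DMSO median and -100 = no signal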
Active calls of the source: *; ? = inconclusive; . = not tested or not shown. These rows are one share of the data. The share of hits here may be higher or lower than overall.

SMILES	Beta apoptosis	AF4-AF9 inh	rRNA inh HTS	rRNA inh HTS OD600	rRNA inh HTS RFP	A1 inh	RanGTP-Impb inh	Vif A3G	Calb FLC	T cruzi repl
COc1ccccc1NC(=O)Cc1noc(CSc2nnc(C(F)(F)F)n2C)n1	-1	-0.7	12	11	2.4	-0.1	4.0	.	-18	-6
NN1C(=O)/C(=C\c2ccco2)SC1=S	-2	5.4	.	.	.	0.3	-1.5	.	-3	-20
CC1=CC2=NC(=O)/C(=C\c3cc(C)n(-c4ccc(F)cc4)c3C)C(=N)N2O1	-7	1.6	-9	-12	24	-0.4	-0.7	.	-18	-1
COc1ccc(Br)cc1S(=O)(=O)NNC(=O)c1c(C)nc2ccccn12	1	-3.1	11	7	3.0	0.4	-0.7	4%	9	-13
COc1ccc(NC(=O)CN2CCN(CC(=O)Nc3ccccc3Cl)CC2)cc1	1	.	.	.	.	1.9	2.0	-8%	21	7
O=S(=O)(NCCc1ccccc1)c1cccc2nsnc12	-11	4.7	3	10	-3.8	1.1	-0.1	17%	-2	-12
CC1(C)CC(=O)C=C(NNC(=O)c2ccccc2O)C1	13	.	.	.	.	-8.3	3.2	3%	-22	-14
COc1cc2c(cc1NC(=O)c1cccnc1)CCCC2	1	.	.	.	.	1.3	?	?	65	8
O=c1[nH]c(CSc2nc(-c3ccc(F)cc3)cs2)nc2ccccc12	-1	.	.	.	.	0.8	-1.8	.	-4	-2
O=C(CN1CCC(C(=O)c2ccc(F)cc2)CC1)Nc1ccccc1	6	.	.	.	.	1.8	0.4	2%	4	6
O=S(=O)(c1cccs1)N1CCc2ccccc21	-13	.	.	.	.	0.3	2.3	1%	-4	-1
CCOC(=O)C1CCN(S(=O)(=O)c2ccccc2[N+](=O)[O-])CC1	0	.	3	7	-1.4	-0.1	0.2	.	-4	-13
CCN(CC(=O)Nc1ccc(Br)cc1)C(=O)c1nc2nc(C)cc(C)n2n1	0	1.2	5	11	-1.3	0.0	.	3%	.	.
CCOC(=O)C1Sc2[nH]c(=O)sc2C(c2ccc(Cl)cc2)C1C(=O)OCC (stereo unspecified)	10	.	.	.	.	0.2	-2.1	4%	-37	2
COc1ccc(OCC(=O)Nc2nnc(S(=O)(=O)N3CCCCCC3)s2)cc1	-5	-2.0	2	1	-0.8	-0.1	0.6	.	-2	3
CC(C)(C)c1nc(SCC(=O)N2CCCC2)c2ccccc2n1	-7	-14	2	9	-0.4	0.0	?	1%	-2	29
Cc1ccc(NC(=O)CSC(C)C(=O)NCCc2ccccn2)cc1 (stereo unspecified)	2	-2.9	10	7	1.9	0.9	13	4%	-2	-3
CS(=O)(=O)c1ccc(C(=O)OCC(=O)N(CCc2ccccc2)Cc2ccccc2)cc1	-5	.	3	-12	5.0	0.2	3.9	.	0	2
Cc1cccnc1NC(=O)c1csnn1	3	1.9	11	5	-6.3	1.2	-5.1	31%	0	1
CCOC(=O)C1=C(C)N=c2s/c(=C/c3cccc([N+](=O)[O-])c3O)c(=O)n2C1c1cc(OC)c(OC)c(OC)c1 (stereo unspecified)	-3	-1.3	5	4	2.0	1.2	-3.0	-1%	-5	-5

Part of the list above, comma-delimited.
SMILES,Beta apoptosis,AF4-AF9 inh,rRNA inh HTS,rRNA inh HTS OD600,rRNA inh HTS RFP,A1 inh,RanGTP-Impb inh,Vif A3G,Calb FLC,T cruzi repl
COc1cc2c(cc1NC(=O)c1cccnc1)CCCC2,1,.,.,.,.,1.3,?,?,65,8
O=c1[nH]c(CSc2nc(-c3ccc(F)cc3)cs2)nc2ccccc12,-1,.,.,.,.,0.8,-1.8,.,-4,-2
O=C(CN1CCC(C(=O)c2ccc(F)cc2)CC1)Nc1ccccc1,6,.,.,.,.,1.8,0.4,2%,4,6
O=S(=O)(c1cccs1)N1CCc2ccccc21,-13,.,.,.,.,0.3,2.3,1%,-4,-1

(next part)
SMILES	Beta apoptosis	AF4-AF9 inh	rRNA inh HTS	rRNA inh HTS OD600	rRNA inh HTS RFP	A1 inh	RanGTP-Impb inh	Vif A3G	Calb FLC	T cruzi repl
COCCNC(=O)/C(C#N)=C/c1c(N2CCN(C)CC2)nc2ccccn2c1=O	-2	0.0	2	11	0.7	2.5	97*	-5%	-17	-4
Cc1ccc(Cl)cc1NC(=O)C(=O)N/N=C/c1ccc2c(c1)OCO2	0	-7.1	6	8	2.6	1.2	.	.	-27	.
COc1ccc(S(=O)(=O)NNc2nc(C)cc(C)n2)cc1[N+](=O)[O-]	-2	-4.6	-6	8	1.2	0.2	6.4	.	1	-4
COc1ccc(CNC(=O)C2CCCN(C(=O)Nc3ccccc3OC)C2)cc1 (stereo unspecified)	-2	-3.6	-4	3	3.0	1.0	-0.6	.	-7	3
CC1CC(C)CN(C(=O)COC(=O)C2CCN(S(=O)(=O)c3c(Cl)cccc3Cl)CC2)C1 (stereo unspecified)	-5	-14	-22	-33	0.7	-0.5	-1.2	3%	-1	-12
O=c1[nH]n2c(-c3ccccc3)nc(O)c2c2ccccc12	4	-1.6	-32*	-7.7*	0.6*	-0.8	0.8	-13%	0	-12
O=C(NNS(=O)(=O)c1ccc(C(=O)NC2CCCC2)cc1)c1ccncc1	-6	-2.0	17	3	-2.5	-0.1	0.6	-2%	-7	13
Cc1ccc(NC(=O)COC(=O)C2CC2C)c(S(=O)(=O)N2CCCCC2)c1 (stereo unspecified)	-5	.	.	.	.	-0.4	-2.7	-3%	-7	-2
COc1ccc2nc(NC(=O)c3cccc(OCc4c(C)noc4C)c3)sc2c1	37	.	.	.	.	-4.3	0.5	-10%	2	35
Cc1ccc(N(CC(=O)Nc2cc(Cl)ccc2Oc2ccccc2)S(C)(=O)=O)c(C)c1	-1	.	.	.	.	-0.5	?	-2%	0	13
CCOC(=O)c1ccccc1-n1nnnc1C	-6	-8.7	7	5	0.4	-0.7	-4.2	-7%	-3	2
CN1C(=O)CS/C1=N\NC(=O)COc1cccc2cccnc12	-4	-2.2	12	10	0.1	-0.3	1.0	-2%	-11	-5
N#CCCSc1ccccc1NC(=O)c1cc(=O)c2ccccc2o1	-7	0.6	14	9	1.6	1.1	3.4	.	-16	-30
Cc1cccc(OCCCN2CCOCC2)c1C	3	-2.8	10	10	-1.0	0.2	5.1	.	9	7
Cc1cc(C)c(S(=O)(=O)Nc2ccc(N3CCOCC3)cc2)c(C)c1	-3	9.9	-11	-15	14	0.3	-14	3%	5	-6
O=C(CC1C(=O)NCCN1Cc1ccccc1C(F)(F)F)NC1CCCCC1 (stereo unspecified)	-1	-2.3	-1	0	1.7	-0.2	3.9	.	20	0
O=c1cc(CN2CCN(c3ccc(F)cc3)CC2)c2cc3c(cc2o1)CCCC3	16	.	.	.	.	-0.2	-3.7	-1%	7	-5
O=c1[nH]c(C2CCCN(S(=O)(=O)c3ccccc3Cl)C2)nc2c1nnn2Cc1ccc2c(c1)OCCO2 (stereo unspecified)	4	-2.7	-18*	2.8*	3.2*	1.3	3.0	-7%	11	20
CCOc1ccc(OCCOCCN2CCOCC2)cc1	0	.	.	.	.	1.1	-3.1	14%	4	5
O=C(O)c1nn(-c2ccc(F)cc2)ccc1=O	-2	-4.8	10	8	0.1	1.7	6.1	-1%	-6	1
COc1ccc(C(=O)CSc2nnc(-c3ccco3)o2)cc1	-6	-1.5	.	.	.	-0.3	4.8	-17%	-15	10
COc1cccc2c(N/N=C/c3ccc(O)c(O)c3)cc(C)nc12	-17	3.1	-5	-11	0.5	1.0	-2.2	3%	21	1
CCOc1ccc(C(=O)CSCC(=O)O)cc1	0	-53	4	2	-5.6	-0.2	-4.3	3%	-6	10
COC(CNC(=O)c1ccc2c(c1)ncn2-c1cc(C)cc(C)c1)OC	-2	-0.6	-4	-10	-1.8	-0.2	2.1	3%	3	20
Nc1nonc1-n1nnc(C(=O)N/N=C/c2ccccc2O)c1CN1CCCC1	77*	-1.5	-10	-2	0.1	0.0	-3.7	9%	-26	1
O=C(CCN1C(=O)/C(=C/c2cccc(Br)c2)SC1=S)NNC(=O)c1cccnc1	6	-27	11	11	-0.5	1.1	5.7	0%	?	6
COC(=O)c1ccc(NC(=S)Nc2cccc(C)n2)cc1	1	-0.4	6	13	-1.8	-0.6	2.4	0%	-3	-3
Cc1ccc(CN(Cc2ccco2)C(=S)NCC(=O)NCc2cccnc2)cc1	-9	4.3	3	14	7.2	1.8	0.4	1%	-21	-4
CCOc1ccccc1CN1CCN(Cc2cccc3c2OCO3)CC1CCO (stereo unspecified)	-1	-0.3	18	13	2.0	0.4	7.8	5%	-10	42
COCCNC(=O)/C(C#N)=C/c1ccc(O)cc1	-2	-16	13	13	-2.9	-6.8	5.3	28%	-9	-17
Nc1nc(NCc2ccco2)nc(N2CCOCC2)c1[N+](=O)[O-]	-3	-3.0	0	-3	5.1	-0.6	-2.6	?	-15	-8
C=C(C)C1CC=C(CN2CCC(O)CC2)CC1 (stereo unspecified)	-4	.	.	.	.	0.3	?	-4%	-3	39
CC1(C)CC(NC(=S)NCc2ccc3c(c2)OCO3)CC(C)(C)N1	-6	.	.	.	.	0.2	8.3	-1%	26	-3
CC(=O)Nc1ccc(/C(C)=N/NC(=O)c2ccccc2Cl)cc1	-5	.	.	.	.	-0.2	5.4	.	-10	-1
CC(=O)c1cc2c(cc1NC(=O)CCn1cnnn1)OCO2	-1	-2.3	5	16	-0.3	0.2	-6.7	.	2	0
O=C1NC(=O)N(c2ccccc2)C1=O	-6	-2.6	7	9	-1.0	1.1	1.4	.	2	-3
O=C(CCC1CCCC1)NCc1cccs1	-6	.	.	.	.	1.1	-2.5	-10%	.	-9
COc1ccc(NC(=O)CNC(=O)Cn2ccc3ccccc3c2=O)c(OC)c1	-11	-1.8	0	9	-1.7	0.1	-2.4	5%	17	-24
O=C(Nc1ccn(Cc2ccccc2)n1)c1n[nH]c([N+](=O)[O-])c1Cl	-11	.	.	.	.	-7.0	2.1	.	-9	-21
CN(C)C(=O)N1CCC(C(=O)NC2CCCCCCC2)CC1	.	.	.	.	.	0.1	0.0	3%	-24	-10
CCCCSc1nc2c(cnn2-c2ccc(C)c(C)c2)c(=O)[nH]1	3	0.3	3	9	-3.4	0.9	4.0	2%	-2	-6

Compound profiles (already shown). Screens in order: Beta apoptosis, AF4-AF9 inh, rRNA inh HTS, rRNA inh HTS OD600, rRNA inh HTS RFP, A1 inh, RanGTP-Impb inh, Vif A3G, Calb FLC, T cruzi repl
O=C(CCC1CCCC1)NCc1cccs1 as listed: -6, ., ., ., ., 1.1, -2.5, -10%, ., -9
CC1(C)CC(NC(=S)NCc2ccc3c(c2)OCO3)CC(C)(C)N1 as listed: -6, ., ., ., ., 0.2, 8.3, -1%, 26, -3
